TRPML1 agonist – agonists of human TRPML1 channel. Q9GZU1. TRPML1-expressing cells, Ca2+ dye fluorescence, FDSS; host cell line not named in the record; reference of the full effect not given here. activation, % (test concentration not listed). 410,000 compounds, 0.12% hits. AID 624414; in the data active = activation above about 50%; inconclusive = about 30% to 50%; inactive = below about 30%; also: 0% is about no effect; the text of the record puts the active cut at 80%
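Tet-induced TRPML1-DL cells, 1,500 per well, cultured overnight, were loaded with a no-wash Ca2+ dye for 45–90 min. Calcium fluorescence was recorded on the FDSS for 110 s after compound addition, before the EC80 agonist (4 uM 54-4) was added.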
CtBP-E1A blk – inhibitors of CtBP/E1A interaction | AlphaScreen GST-E1A/His-CtBP binding, 1536-well; active compounds read low; control for the full effect not named in the record | activity change, % (concentration not given with the values) | 340,000 compounds, 0.49% hits; in the data active means activity change below about -65%; inconclusive means about -30% to -65%; inactive means above about -30%; also: % is scaled to controls: 0 for no effect and ±100 for the full control effect
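AlphaScreen with 125 nM GST-E1A and 125 nM His-CtBP (5X stocks) in Tris pH 8.0, 300 mM NaCl, BSA, Tween 20, TCEP. Compounds preincubated 2 h at 37 deg C, then glutathione donor/nickel acceptor beads added for 1 h at 37 deg C in dark.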
Six1-Eya2 blk – Six1/Eya2 interaction inhibition | activity change, % (concentration not given with the values) | AlphaScreen GST-Six1/His-Eya2 binding, biochemical; active compounds read low; control for the full effect not named in the record | 360,000 compounds, 0.56% hits; in the data active = activity change below about -65%; inconclusive = about -30% to -65%; inactive = above about -30%; also: % is scaled to controls: 0 for no effect and ±100 for the full control effect
Target sequence (O00167 whole entry, looked up): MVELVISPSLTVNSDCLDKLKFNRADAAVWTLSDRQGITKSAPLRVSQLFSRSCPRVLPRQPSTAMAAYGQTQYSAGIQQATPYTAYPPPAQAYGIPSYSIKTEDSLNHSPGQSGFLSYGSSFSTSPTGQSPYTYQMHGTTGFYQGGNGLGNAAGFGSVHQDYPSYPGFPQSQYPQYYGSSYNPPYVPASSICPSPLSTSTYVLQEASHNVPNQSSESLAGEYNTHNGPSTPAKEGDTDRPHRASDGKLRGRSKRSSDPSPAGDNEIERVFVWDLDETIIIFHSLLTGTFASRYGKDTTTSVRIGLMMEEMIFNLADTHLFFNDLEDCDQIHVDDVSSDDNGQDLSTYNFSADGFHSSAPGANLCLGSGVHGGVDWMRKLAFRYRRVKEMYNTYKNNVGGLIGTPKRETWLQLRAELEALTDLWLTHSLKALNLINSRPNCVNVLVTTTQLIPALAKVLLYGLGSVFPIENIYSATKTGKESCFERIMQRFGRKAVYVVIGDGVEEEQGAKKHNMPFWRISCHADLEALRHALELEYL
Target sequence (Q15475 whole entry, looked up): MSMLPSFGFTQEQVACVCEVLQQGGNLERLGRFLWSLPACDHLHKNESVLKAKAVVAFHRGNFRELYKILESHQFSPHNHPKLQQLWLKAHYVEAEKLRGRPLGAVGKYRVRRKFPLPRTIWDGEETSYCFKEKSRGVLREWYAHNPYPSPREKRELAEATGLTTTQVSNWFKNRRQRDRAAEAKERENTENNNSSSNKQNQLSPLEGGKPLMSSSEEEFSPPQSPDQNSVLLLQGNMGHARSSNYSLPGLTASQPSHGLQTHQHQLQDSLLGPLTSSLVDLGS
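Six1/Eya2 binding was read as AlphaScreen signal after compounds were pinned into GST-Six1 plus His-tagged Eya2 (5X stock 250/500 nM) in pH 8.0 Tris/NaCl/TCEP buffer, beads added, then incubated 1 h, 37 C, dark.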
PINK1 expr mod – PINK1 expression modulation | PINK1 immunofluorescence, high-content cytometry, 24 h | Potency, µM (highest dose often 76.6 µM), for inactives: at the top dose activation (PINK1 increase), actives largely listed as activators | 410,000 compounds, 0.2% hits | AID 624263; active = well fitted activation curve with a large enough effect; inconclusive = small, poorly fitted or top-dose-only effect; inactive = flat fitted curve, though single readings scatter; cell line not stated here;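 also: potency is read from the fitted curve at half-maximal effect; % of control where 0% means no effect; nearly all actives have a fitted effect of over 65% in size; a mitochondrial uncoupler was the plate control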
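PINK1 protein, normally rapidly degraded, was detected by immunofluorescence after 24 hour compound treatment of a stable cell line. Titration data (5 concentrations) came from laser-scanning cytometry, with CCCP-treated wells as controls.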
D2 agonist – human D2 receptor agonism in beta-arrestin assay; P14416; DiscoveRx PathHunter D2 beta-arrestin, luminescence, 90 min; 100% = 57 uM dopamine signal; activation, % (concentration not given with the values); 360,000 compounds, 0.084% hits; in the data active = activation above about 40%; inconclusive = about 15% to 40%; inactive = below about 15%; also: the text of the record calls up to 30% inactive
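Agonist mode: compounds alone added to overnight-plated D2 PathHunter cells for 90 min at 37 C, with 57 uM final dopamine (EC100) defining full response. Beta-arrestin recruitment detected by chemiluminescent reagent, read after 1 h at ambient temperature.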
D2 potentiator – positive allosteric modulators of human D2 dopamine receptor | 360,000 compounds, 0.23% hits | DiscoveRx D2 beta-arrestin cells, luminescence, 90 min; 100% = 57 uM dopamine signal | P14416 | AID 624464 | potentiation, % (concentration not given with the values); active = potentiation of 50% or more; inconclusive = 30% to 50%; inactive = 30% or less;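 also: tested on top of an EC20 dose of dopamine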
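PathHunter D2 cells, attached overnight at 37 deg C, received compound in DMSO plus dopamine at EC20 (50 nM final) for 90 min at 37 deg C. Beta-arrestin recruitment was read as luminescence after 1 h with detection reagent at ambient temperature.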
Starred values were filed as active, the others as inactive; ? = inconclusive; / = not tested or not shown; [ ] = remark or other dose.

Values run as follows: Six1-Eya2 blk, D2 agonist, PINK1 expr mod, D2 potentiator, TRPML1 agonist, CtBP-E1A blk
> Cc1ccc(S(=O)C(c2ccccc2)c2ccccc2)cc1 (configuration not stated)
  6, -2.0, 1.6%, -3, 2.1, -3
> CCn1c(=O)c(C(=O)Nc2ccccc2S(N)(=O)=O)c(O)c2ccccc21
  2, 3.9, -0.7%, 0, 1.5, -4
> O=C(CSc1nc(-c2ccccc2Cl)ns1)c1ccc(Cl)cc1
  55, -0.3, 13%, -8, 4.1, 35
> C[C@@H]1COC(=O)CCC/C=C\C[C@@H](CC(=O)N(CCO)Cc2ccccc2)C(=O)N1
  -4, -1.5, -0.2%, /, -0.6, 4
> CCOc1cccc(OCCCNCCCOC)c1
  -1, -1.6, 0.5%, -37, -1.0, 8
> c1ccc(-c2ccccc2OCCCCn2ccnc2)cc1
  -1, -2.4, 2.8%, -3, 0.8, -9
> CCOc1ccc2[nH]c3c(NCCCOC)ncnc3c2c1
  -23, -4.5, 5.2%, 17, /, -3
> CNc1cncc(-c2ccc(O)cc2C)n1
  -8, 8.8, 0.7%, -2, -0.7, 0
> O=C(CNC1CCCCC1)Nc1ccc(S(=O)(=O)N2CCCCC2)cc1
  0, 2.6, 2.5%, -6, 1.5, 20
> COc1ccc(Cl)cc1NC(=O)CNCc1cccs1
  10, -5.6, 0.3%, -15, 1.9, /
> CCn1c(SCC(=O)N2CCCc3ccccc32)nnc1-c1c[nH]c2ccccc12
  -8, 0.1, -1.1%, -19, -0.9, -2
> CCCc1nnc(SCC(=O)Nc2ccc(NC(C)=O)cc2)n1-n1cccc1
  -3, -6.6, 4.2%, -15, -0.3, 4
> COc1ccc(CC(=O)NC(C)c2nnc(SCC(=O)Nc3nc(C)cs3)n2C)cc1 (configuration not stated)
  2, -1.2, 1.8%[38.3 µM], -1, 0.5, 1
> CC(Nc1nc(-c2ccc(F)cc2)cs1)c1nc2cc(C(F)(F)F)ccc2n1CCOCCO (configuration not stated)
  -2, -0.9, 0.1%, -4, -0.5, 2
> CCNC(=S)NN=C1c2ccccc2-c2ccccc21
  ?, -3.8, 1.8%, -21, 3.0, -11
> Cc1[nH]c2ccc(-c3n[nH]c(=S)n3C)cc2c1C
  -4, 1.2, /, -14, 0.4, 6
> Cc1ccccc1-c1cnc(C(O)c2cccc(C)c2C)[nH]1 (configuration not stated)
  -9, -5.0, 7.3%, -12, -0.5, 1
> O=c1c2ccccc2c(C=Nc2ccc(Cl)cn2)c(O)n1-c1cc(Cl)ccc1N1CCOCC1
  -4, -0.4, 2.8%, 0, -0.5, 0
> COc1ccc(CC(NC(C)=O)C(=O)NC2CCN(c3nc(C)cc(C)c3C#N)CC2)cc1OC (configuration not stated)
  4, -7.8, 3.8%, -2, 0.2, -2
> CC(=O)c1cccc(NC(=O)COC(=O)c2ccc3c(c2)OCO3)c1
  5, 0.0, -0.8%, 1, 0.6, -3
> COC(=O)c1cc(Cl)ccc1NCC(N)c1ccccc1 (configuration not stated)
  57, -3.7, ?, -8, -0.5, 76
> CCOc1ccc(CN2CCN(Cc3cccc4c3OCO4)CC2CCO)cc1 (configuration not stated)
  0, -5.5, 0.9%, -4, -0.9, -2
> CCOC(=O)C1CCN(C(=O)COC(=O)CSc2ccc([N+](=O)[O-])cc2)CC1
  -3, 0.7, 4.5%, 11, 1.7, -20
> CC(C)OCC(O)Cn1c(N2CCCC2)nc2c1c(=O)[nH]c(=O)n2C (configuration not stated)
  2, -1.5, -1.7%[38.3 µM], -8, -0.2, 8
> O=C(CSc1nnc(CNC(=O)c2c(F)cccc2Cl)o1)NC1CCCC1
  0, 2.2, 0.2%, -1, -0.9, 4
> COc1ccc(-c2cc(C(=O)Nc3cc(S(N)(=O)=O)ccc3C)c3ccccc3n2)cc1OC
  4, -5.7, 7.9%, 4, -0.4, 6
> O=C(CSc1nnc(CNC(=O)c2ccco2)o1)Nc1ccccc1
  2, -2.7, -2.4%, -1, 5.3, -3
> O=C(Nc1ccc(S(=O)(=O)N2CCCCC2)cc1)C1CC(=O)N(c2ccccc2)C1 (configuration not stated)
  13, -0.5, 2.6%, 7, 0.0, 13
> CC(=O)Nc1ccc(NC(=O)C(C)OC(=O)C(C)SCC(=O)Nc2ccc(F)cc2)cc1 (configuration not stated)
  8, 0.6, 0.5%, -2, -0.1, -5
> O=C(NC12CC3CC(CC(C3)C1)C2)c1cc2nc(-c3ccco3)cc(C(F)(F)F)n2n1
  -3, -5.9, ?, -20, ?, 8
> COc1ccccc1Oc1ccc2c(c1)C(=O)N(c1cccc(O)c1)C2=O
  -4, -1.6, 6.6%[38.3 µM], -10, 1.9, -9
> COc1ccc(C2C(C#N)=C(N)OC3=C2C(=O)CC(C)C3)c(OC)c1OC (configuration not stated)
  0, 1.1, -0.4%, 1, 0.8, -15
> CC(C)c1ccc(OC(=O)NCCO)cc1
  13, -8.1, -1.0%, -1, 0.8, 3
> CC(C)C[C@H](NC(=O)NCc1ccccc1Cl)C(=O)O
  4, 2.0, 4.6%[38.3 µM], -6, 1.0, 10
> O=C(CSc1nnc(SCc2ccccc2)s1)N/N=C/c1ccc(C(=O)O)cc1
  11, -3.6, 0.2%, -5, 1.0, -2
> COc1ccc(-c2cc(NC=O)c3ncc(-c4ccccc4)n3c2)cc1OC
  -23, 2.0, -0.7%, 7, -0.7, -29
> COC(=O)C(Cc1ccccc1)NC(=O)c1ccc(C)cc1 (configuration not stated)
  3, -0.2, 3.2%, -8, 0.3, /
> CCN(CC)c1ccc(NC(=O)COc2ccccc2C#N)cc1S(=O)(=O)Nc1ccccc1OC
  5, 0.1, 7.6%, -16, 1.8, -12
> Cc1cccc(NC(=O)CN(C)C(=O)C2CC2)c1C
  -2, 1.4, 3.4%, -10, 0.3, 18
> Cc1c(CNCCc2ccc(Cl)cc2)c(C(=O)O)c(C)n1-c1ccccc1
  ?, 0.8, 0.3%, -11, -1.2, -14
> C=C[C@@](C)(O)CC[C@@H]1[C@@]2(C)CCCC(C)(C)[C@@H]2CC[C@@]1(C)O
  -1, -5.5, 1.0%, -29, /, 3
> CN1OC[C@@H]2CN(Cc3ccc(Cl)cc3)[C@H](c3ccc(-n4ccnc4)cc3)C[C@@H]21
  -6, -7.3, -0.3%, -13, 0.7, ?
> CCCc1nc2ccccc2c(C(=O)O)c1CC
  1, -0.2, -0.3%, -2, 0.7, -5
> Cc1nnc(NC(=O)c2ccc(F)c(S(=O)(=O)N3CCOCC3)c2)s1
  2, -2.3, 1.5%, 6, 0.2, 3
> Cc1cc(C)c(C(=O)CSc2nnc(-c3cccnc3)n2C)c(C)c1
  -3, -2.2, -1.1%[38.3 µM], -5, 2.4, -1
> COc1ccc(OCC(=O)Nc2ccc(S(=O)(=O)Nc3cc(C)nc(C)n3)cc2)cc1
  3, -1.7, 1.1%, -18, 0.5, -2
> COc1ccccc1NC(CC(=O)c1ccccc1)C(=O)OCC(=O)c1ccc(Br)cc1 (configuration not stated)
  -18, -3.6, 1.8%, 7, 0.3, -13
> O=C1NC(c2ccccn2)Nc2sc3c(c21)CCC3 (configuration not stated)
  -80*, -2.7, -1.6%, 14, 0.4, -77*
> COC(=O)CCC/C=C1\SC[C@@H](NC(=O)c2ccccc2)C1NC(C)=O (some centres not stated)
  1, 1.8, -1.1%, -6, 0.3, -2
> CC(=O)c1cnc2scnn2c1=O
  11, -3.5, 2.9%, -4, -0.2, 0
> CCOC(=O)N1C(=O)c2cc(OC)ccc2S1(=O)=O
  11, -3.3, 3.1%, -7, 0.2, 14
> NC(=O)NOCc1ccc(F)cc1Cl
  -13, 3.3, 0.0%, -2, -0.5, 7
> COc1ccc(/C=C/C(=O)NNC(=O)c2ccncc2)c(OC)c1
  -1, -1.4, 0.3%, 0, -0.3, /
> COc1ccc(CN2CC(C(=O)NCCc3ccccc3)CC2=O)cc1 (configuration not stated)
  1, 0.1, -5.5%[38.3 µM], 4, 0.8, -1
> CC(C)CNC(=O)C1(C)CCCCCN1Cc1ccccc1-c1ccccc1 (configuration not stated)
  -1, -7.4, ?, -25, 0.5, 0
> Cc1ccc(S(=O)(=O)NCCC(=O)OCC(=O)N2CCCC2=O)cc1
  -7, -4.0, -1.0%, -3, 0.2, 2
> Oc1cccc(Nc2ncnc3c2oc2ccccc23)c1
  -6, 7.0, -0.9%, 3, 1.2, -9
> Cc1ccc2c(CC(=O)Nc3cccc(S(=O)(=O)N4CCOCC4)c3)coc2c1
  -21, 0.9, 2.4%, 3, -0.6, -2
> CC(=O)Nc1ccc(S(=O)(=O)NC2=NCN(C)CN2)cc1
  0, 2.6, -0.8%, -4, -0.6, -8
> O=C(CNC(=O)C(c1ccccc1)c1ccccc1)N/N=C\c1ccc(C(=O)O)cc1
  2, -2.1, 1.0%, -8, 0.5, /

A draw from above in order of SMILES length, smallest number first.
Values run as follows: Six1-Eya2 blk, D2 agonist, PINK1 expr mod, D2 potentiator, TRPML1 agonist, CtBP-E1A blk
> CNc1cncc(-c2ccc(O)cc2C)n1
  -8, 8.8, 0.7%, -2, -0.7, 0
> O=C(CSc1nnc(SCc2ccccc2)s1)N/N=C/c1ccc(C(=O)O)cc1
  11, -3.6, 0.2%, -5, 1.0, -2
> CCn1c(SCC(=O)N2CCCc3ccccc32)nnc1-c1c[nH]c2ccccc12
  -8, 0.1, -1.1%, -19, -0.9, -2
> O=c1c2ccccc2c(C=Nc2ccc(Cl)cn2)c(O)n1-c1cc(Cl)ccc1N1CCOCC1
  -4, -0.4, 2.8%, 0, -0.5, 0

Other results follow.
Values run as follows: Six1-Eya2 blk, D2 agonist, PINK1 expr mod, D2 potentiator, TRPML1 agonist, CtBP-E1A blk
> Cc1nc2ccc(C(=O)O)cc2[nH]1
  0, 4.2, -1.2%, ?, 1.9, -14
> COc1ccc(C2CC(=O)Oc3ccc(OC)cc32)cc1 (configuration not stated)
  4, 4.6, -0.7%, /, -0.9, 2
> COc1ccc(S(=O)(=O)N2CCN(C(=O)Nc3ccccc3OC)CC2)cc1
  -1, 1.2, -0.3%, 8, -0.3, 5
> CCc1ccc(C(=O)OCC(=O)N2CCCCCC2)cc1
  11, -7.4, -0.6%, -4, -0.3, 2
> COc1ccc(OC)c(S(=O)(=O)Nc2cc(Cl)cc(Cl)c2)c1
  3, -1.1, 1.5%, -4, 0.9, 0
> O=C(/C=C/Nc1ccccc1F)c1ccc(Br)cc1
  13, -1.1, 6.3%, -6, 0.4, -6
> O=C(Nc1cccc(Cl)c1Cl)c1csc([C@H]2C[C@H](O)[C@@H](CO)O2)n1
  4, 0.7, 2.1%, -6, 0.1, -19
> CCOc1ccccc1NC(=O)C(Sc1ccccc1)c1ccccc1 (configuration not stated)
  23, 0.0, 5.2%, 0, 2.6, 33
> CCN(Cc1ccccc1)C(=O)Cn1cc(S(=O)(=O)NC)c(S(=O)(=O)NC)c1
  -2, -4.4, 1.1%, -6, 0.8, /
> CC(C)C(N)c1csc(NC(=O)Nc2ccccc2C(C)(C)C)n1 (configuration not stated)
  -4, -3.3, 4.7%, -1, 0.6, -1
> COc1ccccc1NC(=O)COC(=O)c1ccccn1
  -2, -3.0, -0.4%, 0, 0.0, -1
> O=C(Nc1ccc(Oc2ccccc2)cc1)c1csc([C@@H]2C[C@H](O)[C@@H](CO)O2)n1
  3, 3.9, 1.0%, -3, 0.9, 2
> Cc1ccc(-n2c(Cc3ccccc3)n[nH]c2=S)cc1
  1, -2.3, -21%[38.3 µM], -3, -1.0, 1
